2A StopGo = FMDV 2A StopGo reporter, luciferase signal; human cells with a luciferase reporter of 2A StopGo recoding; control for the full effect not named in the record; 410,000 compounds, 1.2% hits; Potency, µM (series often up to 57.9 µM), for the others: at the highest dose signal change, negative = less light; AID 1159524; active = well fitted falling curve with a large enough effect; inconclusive = small, poorly fitted or top-dose-only effect; inactive = no such curve, though single readings can be large or run the other way; tested in HEK293T cells; also: nearly all actives have a fitted effect of over 45% in size; luciferase light after 4 h
RE007 growth inh = less growth of the S. pombe RE007 Vpr strain; S. pombe RE007 Vpr strain, BacTiter-Glo ATP luminescence, 24 h; control for the full effect not named in the record; Potency, µM (titrated, usually from 92.2 µM), for the others: top-dose activity change, negative = less growth; 360,000 compounds, 0.21% hits; AID 651644; active = well fitted falling curve with a large enough effect; inconclusive = small, poorly fitted or top-dose-only effect; inactive = no such curve, though single readings can be large or run the other way;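 also: nearly all actives have a fitted effect of over 50% in size; the assay follows cell death caused by Vpr and the record does not say whether a fall means rescue or toxicity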
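Fission yeast RE007 carrying one integrated HIV-1 vpr copy, seeded at OD 0.01 in PMG+AL medium with 23 nL pinned compound. Grown 24 h at 30 degrees; viability read by BacTiter-Glo luminescence after 5 min.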
The depositor's hits bear a star; ? = inconclusive; & = joins results of further samples; [ ] = remark or other dose. % is scaled to controls: 0 for no effect and ±100 for the full control effect; potency is read from the fitted curve at half-maximal effect.

SMILES	2A StopGo	RE007 growth inh
CN(C(=O)c1cccc(NC(=O)Cc2ccc(NC(=O)C3CCCN(C(=O)C4CCC4)C3)cc2)c1)C1CC1 (stereo not drawn)	10%	-28%
COc1ccc(Cl)cc1NS(=O)(=O)c1cccc(C(=O)NCCCN2CCOCC2)c1	-2%	-6%
C=CCC1CCCCC1=C(C#N)c1ccccc1 (stereo not drawn)	-25%	-14%
COc1cccc(CNC(=O)CCNC(=O)N2CC(=O)Nc3ccccc32)c1	-14%	0%
CC1(Cc2cccc(F)c2)C(=O)Nc2ccc(-c3cccnc3)cc21 (stereo not drawn)	-9%	-14%
CCCCCNC(=O)C(c1cc2ccccc2o1)n1c(=O)c(-c2ccco2)nc2ccccc21 (stereo not drawn)	33%[activator]	10%
CN(CCCC(=O)O)c1ccc(N=Nc2ccc([N+](=O)[O-])cc2)cc1	-7%	-15%
Cc1cn([C@H]2C[C@H](O)[C@@H](/C=C/C(=O)NCCc3ccc(S(N)(=O)=O)cc3)O2)c(=O)[nH]c1=O	-4%	-2%
CCOC(=O)c1c(C)[nH]c(C)c1C(=O)COC(=O)c1nn(CC)c(=O)c2ccccc12	-24%	-14%
Cc1ccc(C#N)c(SCc2cccc(Br)c2)n1	11%	-4%
C[C@@H]1CN([C@H](C)CO)C(=O)c2c(c3ccccc3n2C)-c2ccccc2CO[C@H]1CN(C)C(=O)Cc1ccccc1	0%	-3%
CCC1=C(Nc2ccccc2)COC1=O	-16%	11%
CS(=O)(=O)N1Cc2cc(C(=O)NCC3CC3)nc(-c3cccc(-c4cccnc4)c3)c2[C@@H]1CCO	-20%	5%
CCOc1ccccc1Nc1cc(C)nc2ccccc12	-19%	1%
CC(C)(O)c1ccccc1CC[C@@H](SCC1(CC(=O)O)CC1)c1cccc(/C=C/c2ccc3ccc(Cl)cc3n2)c1	-9%	10%[18.4 µM]
C(=C\c1ccccc1)/CN1CCN(C(c2ccnc3ccccc23)c2nnnn2-c2ccc3c(c2)OCCO3)CC1 (stereo not drawn)	-36%	-26%
CC(C)(C)NC(=O)C(c1ccccc1)n1c(=O)c(-c2ccccc2)nc2ccccc21 (stereo not drawn)	-20%	-8%
COc1ccccc1CNc1nc(NCC2CC2)nc2ccsc12	25µM*	-17%
CCCCNC(=O)C1C(c2ccc(OC)cc2)=Nc2ccccc2N1C(=O)c1ccncc1 (stereo not drawn)	15%	6%
COc1cccc(CN2CCN(C(=O)[C@H]3O[C@@H](n4cnc5c(N)ncnc54)[C@H](O)[C@@H]3O)CC2=O)c1	-11%	2%
C[C@H]1CN([C@@H](C)CO)C(=O)c2cc(Br)cnc2O[C@H]1CN(C)C(=O)c1cnccn1	2%	?
O=C(Cc1cccc(NC(=O)C2CCCN(C(=O)C3CC3)C2)c1)Nc1ccc(C(=O)N2CCOCC2)cc1 (stereo not drawn)	-3%	-4%
COc1ccc(S(=O)(=O)NC(=O)C2(C)CCN2C(=O)C2(c3ccc(Cl)cc3)CCC2)cc1 (stereo not drawn)	8%	10%
CC1=C(C(=O)N(C)C)CC(CC(=O)NCc2ccco2)C(=O)N1CCC1=CCCCC1 (stereo not drawn)	-23%	-27%
C[C@@H]1CN([C@@H](C)CO)C(=O)c2c(c3ccccc3n2C)-c2ccccc2CO[C@H]1CN(C)S(=O)(=O)c1ccc(C(F)(F)F)cc1	-13%	-3%
COc1ccc(S(=O)(=O)N2C[C@H]3CON(C)[C@H]3C[C@H]2c2cccc(Br)c2)cc1	-1%	1%
CCCN(C)C[C@H]1OCc2cnnn2CCCC(=O)N([C@H](C)CO)C[C@@H]1C	-7%	3%
COc1ccc([C@@H]2CC(=O)[C@@H]3CN(S(=O)(=O)c4ccc(C)cc4)[C@H](c4ccccc4)C[C@@H]3N2S(=O)(=O)c2ccccc2)cc1	-8%	5%
CN(NS(=O)(=O)c1ccc([N+](=O)[O-])cc1)c1ccccc1	51%[activator]	15%
O=C(NC(c1ccc(Cl)cc1)c1cnccn1)C1CCN(CCCc2ccccc2)CC1 (stereo not drawn)	1%	-23%
COc1cc(C=CC(=O)c2ccccc2)cc(OC)c1OC	16µM*	-17%[18.4 µM]
CC(C)(C)NC(=O)C(c1cccc2ccccc12)n1c(=O)c(-c2ccco2)nc2ccccc21 (stereo not drawn)	-21%	-7%
c1ccc2c(-c3cc(NCc4ccncc4)n4nccc4n3)cccc2c1	0%	1%
COc1ccc(-c2coc3c(C(=O)NCc4ccc(F)c(F)c4)cccc23)c(C)c1	?	16%[18.4 µM]
CCCCN(C)C(=O)c1ccc(Nc2nc(C(N)Cc3ccccc3)cs2)nc1 (stereo not drawn)	21%	-4%
O=C(Cc1ccc(NC(=O)C2CCCN(C(=O)c3ccccc3)C2)cc1)Nc1ccc(C(=O)N2CCOCC2)cc1 (stereo not drawn)	0%	47%
C[C@H](CO)N1C[C@H](C)[C@H](CN(C)S(C)(=O)=O)OCc2cnnn2CCCC1=O	-15%	-25%
O=C(NC(Sc1ccc(Cl)cc1)C(=O)O)c1ccccc1 (stereo not drawn)	-5%	-5%
CC(C)(C)c1ccc(C(=O)N2CCC2(C)C(=O)NCc2ccc3c(c2)OCO3)cc1 (stereo not drawn)	?	7%[18.4 µM]
CO[C@H](C(=O)N(C)C[C@@H]1OCc2ccccc2-c2c(n(C)c3ccccc23)C(=O)N([C@H](C)CO)C[C@@H]1C)c1ccccc1	-19%	-11%
CC1(C(=O)Nc2cccc(Oc3ccccc3)c2)CCN1Cc1cccc2c1OCO2 (stereo not drawn)	?	-10%[18.4 µM]
CC1CCCCC12NC(=O)N(CC(=O)NCc1cccs1)C2=O (stereo not drawn)	-20%	4%
Cc1ccc(C)c(OCC(=O)Nc2c(C)n(C)n(-c3ccccc3)c2=O)c1	-11%	2%
C/C=C1\COC(C(=O)NCc2ccccc2)(C(F)(F)F)C=C1C=C1CCCCC1 (stereo not drawn)	-22%	-8%
CC(=O)NCCNC(=O)C1(C)Cc2c(-c3cccc(NC(C)=O)c3)ccnc2O1 (stereo not drawn)	-5%	4%[18.4 µM]
CCCCCCNc1ccc(C(=O)OCC)cc1	24%	17%
CCOc1ccc(CCN2C(=S)N([C@@H](Cc3ccc(O)cc3)CN3CCC[C@@H]3CN3C(=S)NC[C@@H]3CC(C)C)C[C@@H]2CC(C)C)cc1	-5%	-15%
CC(C)(C)S(=O)N1Cc2cc(C(=O)N3CCc4ccccc4C3)nc(-c3cccc(-c4ccncc4)c3)c2[C@H]1CCO (stereo partly drawn)	-16%	5%
CCCCNC(=O)C(NC(=O)c1ccc2ccccc2c1)C(=O)c1ccccc1 (stereo not drawn)	5%	-2%
O=C(NCc1cccc(C(F)(F)F)c1)c1csc([C@H]2C[C@H](O)[C@@H](CO)O2)n1	-14%	-5%
CS(=O)(=O)c1ccc(NC(=O)C2CCCN(C(=O)c3ccc(Cl)cc3)C2)cc1 (stereo not drawn)	-25%	-1%
CCOc1ccc(NC(=S)N2CCC(C(=O)c3ccc(OC)cc3)CC2)cc1	37%[activator]	-4%
C=C1[C@@H](CCO)N(S(=O)(=O)C(C)(C)C)C[C@@H]1C	-16%	5%
Cc1ccc(Nc2n[nH]c(=S)s2)cc1C	38%[activator]	-7%
CN(C)c1cccc(CNC(=O)c2ccc3nc([C@@H]4O[C@H](CO)[C@H](O)[C@H](O)[C@H]4O)[nH]c3c2)c1	-12%	16%
CCOC(=O)C1(C)CCN1C(=O)c1ccc(OC)c(C(F)(F)F)c1 (stereo not drawn)	-11%	-1%[18.4 µM]
Cc1ccc([N+](=O)[O-])cc1CN1CCN(c2ncc(Cc3ccccc3)cn2)CC1	?	-22%
COC(=O)[C@]12CCCCC=C1N(Cc1ccco1)C(=O)[C@H](CC(=O)NCC1CCCCC1)C2	0%	15%
N#CC(=C1NC(=O)c2ccccc21)c1nc2ccccc2n1CCO	-36%	-7%
O=C(Cc1c(-c2ccccc2)nc2ccc(Br)cn12)N1CCCC1	-1%	-11%
Additional structures.
SMILES	2A StopGo	RE007 growth inh
O=C(NCc1ccc(Cl)nc1)c1csc([C@@H]2O[C@H](CO)[C@H](O)[C@H](O)[C@H]2O)n1	-15%	8%[18.4 µM]
CC(=O)Nc1ccc(-c2ccnc3c2CC(C(=O)NC(C)C)O3)cc1 (stereo not drawn)	-9%	8%
CC1(C)CN(Cc2cccnc2)C(=O)[C@H]1CC(=O)Nc1ccc(Br)cc1	-16%	-17%
CN(C)C(=O)C[C@@H]1CC[C@@H](NC(=O)C2CCC2)[C@@H](CO)O1	-9%	0%
O=C1C(=Cc2ccc(F)cc2)Cc2ccccc21	50%[activator]	-13%[18.4 µM]
CCOC(=O)C1(C)CCCN(C(=O)c2cccc(OC(F)(F)F)c2)C1 (stereo not drawn)	0%	6%
Nc1nc(N)nc(-c2cc(Cl)ccc2Cl)n1	-18%&-22%	10%[18.4 µM]
O=S(=O)(Nc1ccc(NS(=O)(=O)c2ccccc2)cc1)c1ccccc1	24%	1%
CC1=C(C(=O)N(C)C)CC(CC(=O)NC2CCCC2)C(=O)N1CCC1=CCCCC1 (stereo not drawn)	70%[activator]	0%
CC(C)C[C@@H](CN1CCC[C@H]1CN1C(=O)C(=O)NC[C@@H]1Cc1ccc(O)cc1)N1C[C@H](Cc2ccc(O)cc2)N(CCc2ccccc2)C(=O)C1=O	-20%	-18%
Cc1ccsc1C(=O)N1CCC1(C)C(=O)NS(=O)(=O)c1ccc(C#N)cc1 (stereo not drawn)	3%	14%
COCCN(C(=O)COC(=O)CNC(=O)c1ccc(C)cc1)c1c(N)n(Cc2ccccc2)c(=O)[nH]c1=O	5%	2%

By substructure, those above containing fluorine.
SMILES	2A StopGo	RE007 growth inh
CC1(Cc2cccc(F)c2)C(=O)Nc2ccc(-c3cccnc3)cc21 (stereo not drawn)	-9%	-14%
C[C@@H]1CN([C@@H](C)CO)C(=O)c2c(c3ccccc3n2C)-c2ccccc2CO[C@H]1CN(C)S(=O)(=O)c1ccc(C(F)(F)F)cc1	-13%	-3%
COc1ccc(-c2coc3c(C(=O)NCc4ccc(F)c(F)c4)cccc23)c(C)c1	?	16%[18.4 µM]
C/C=C1\COC(C(=O)NCc2ccccc2)(C(F)(F)F)C=C1C=C1CCCCC1 (stereo not drawn)	-22%	-8%
O=C(NCc1cccc(C(F)(F)F)c1)c1csc([C@H]2C[C@H](O)[C@@H](CO)O2)n1	-14%	-5%
CCOC(=O)C1(C)CCN1C(=O)c1ccc(OC)c(C(F)(F)F)c1 (stereo not drawn)	-11%	-1%[18.4 µM]
O=C1C(=Cc2ccc(F)cc2)Cc2ccccc21	50%[activator]	-13%[18.4 µM]
CCOC(=O)C1(C)CCCN(C(=O)c2cccc(OC(F)(F)F)c2)C1 (stereo not drawn)	0%	6%

New compounds follow
SMILES	2A StopGo	RE007 growth inh
CCCCCCN1C[C@@H](O)[C@H](n2cc(C3CC3)nn2)C[C@@H]1c1ccc(Cl)cc1	-30%	-3%
CCN(CC)C(=O)C1=C(C)N(Cc2ccc(C(C)(C)C)cc2)C(=O)C(CC(=O)NC2CC2)C1 (stereo not drawn)	-3%	3%
COc1ccc(CC(=O)Nc2ccc(S(=O)(=O)Nc3cc(C)nc(C)n3)cc2)cc1OC	32%[activator]	0%
O=C1NCN(c2ccccc2)C12CCN(C(c1ccnc3ccccc13)c1nnnn1C1CCCC1)CC2 (stereo not drawn)	-4%	6%
CCS(=O)(=O)N1Cc2cc(C(=O)N(C)C)nc(-c3cccc(-c4ccc(F)cc4)c3)c2[C@@H]1CCO	-17%	8%
COc1cccc(C(=O)N2CCC[C@H]2C(=O)N2CCC[C@H]2C(=O)N(C)Cc2ccccc2)c1	-13%	3%
CC(C)CNC(=O)c1cccc2c(-c3ccc(F)c(F)c3)coc12	-4%	2%
C[C@@H]1CN([C@@H](C)CO)C(=O)c2cc(C#CCN(C)C)cnc2O[C@H]1CN(C)Cc1ccc2c(c1)OCO2	-7%	14%
CCNC(=O)C1(C)CCCN1C(=O)c1ccc(-c2ccccc2)cc1 (stereo not drawn)	-2%	6%
COC(=O)[C@]12CCCCC=C1N(Cc1ccco1)C(=O)[C@H](CC(=O)NCCCCc1ccccc1)C2	-3%	-5%
CCOC(=O)C1(C)CCN1C(=O)c1ccc(C(C)(C)C)cc1 (stereo not drawn)	16%	5%
COc1ccc([C@H]2CC(=O)C[C@@H](CCn3cc(C(C)C)nn3)O2)cc1	-21%	2%
CCCn1c(C)cc(C(=O)CN2C(=O)c3ccccc3S2(=O)=O)c1C	?	5%
COC(=O)c1cn(-c2nc3ccccc3s2)nn1	8%	-26%
CC(=O)Oc1ccc(/C=C(\NC(=O)c2cccc(Br)c2)C(=O)Nc2ccc(C(=O)O)cc2)cc1	4%	6%
CC(C)(C)OC(=O)N1CCc2onc(-c3ccc(Br)cc3)c2C1=O	13%	16%
C[C@@H]1CN([C@@H](C)CO)C(=O)CCCn2nncc2CO[C@H]1CN(C)S(=O)(=O)c1ccc(-n2cccn2)cc1	?	-20%
Cc1cc(O)cc(O)c1/C=N/NC(=O)c1ccc2c(c1)OCCO2	-16%	-4%
COc1cc(C(=O)NC(=S)Nc2ccc3ccccc3c2)cc(OC)c1OC	-29%	-4%
O=C1NC[C@@H](CCCCN2C[C@H](Cc3ccc(O)cc3)N(Cc3ccccc3)C(=O)C2=O)N(CCC2CCCCC2)C1=O	-3%	-7%
CC(C=CC(O)=C1C(=O)CNC1=O)=C[C@@H](C)C1OC2(C)OC(C(=O)C3O[C@@]32C)C1C (stereo partly drawn)	-26%	95%

This is a subset (hit frequency here may not be typical).
